Compound activity as filed in PubChem BioAssay.
NS1 function inh: inhibitors of influenza NS1 protein function; S. cerevisiae slowed by influenza A NS1, growth recovery by OD600; Potency, µM (top dose mostly 46.1 µM), without a hit: top-dose activity, positive = more growth; 270,000 compounds, 0.4% hits; AID 2326; also: actives are rising curves; nearly all actives have a fitted effect of over 50% in size
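Growth recovery, yeast-based: influenza A NS1 expressed in S. cerevisiae causes slow growth, and suppressors are detected by OD600. The parent strain without NS1 is used as positive control.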
SARS PLpro yeast: blocks SARS-CoV papain-like protease in a yeast assay. S. cerevisiae expressing SARS-CoV PLpro, growth rescue; control for the full effect not named in the record. AID 485353. Potency, µM (titrated, usually from 32.9 µM), for the others: at the top dose activity, positive = growth rescue. 330,000 compounds, 0.19% hits; also: 0% is about no effect; nearly all actives have a fitted effect of over 55% in size; growth read by luminescence after 48 h
StopGo reporter: lowers the luciferase signal of an FMDV 2A StopGo reporter; human cells with a luciferase reporter of 2A StopGo recoding; control for the full effect not named in the record; Potency, µM (series often up to 57.9 µM), for inactives: at the top dose signal change, negative = less light; 410,000 compounds, 1.2% hits; AID 1159524; active = well fitted falling curve with a large enough effect; inconclusive = small, poorly fitted or top-dose-only effect; inactive = no such curve, though single readings can be large or run the other way; tested in HEK293T cells; also: % is scaled to controls: 0 for no effect and ±100 for the full control effect; nearly all actives have a fitted effect of over 45% in size; luciferase light after 4 h
MARV entry inh: inhibitors of Marburg virus binding or cell entry; Marburg virus pseudotyped entry inhibition, cell reporter; control for the full effect not named in the record; about a third of the inactives were read at about 46 µM; Potency, µM (titrated, usually from 37.8 µM), inactives show top-dose activity change, negative = inhibition, most hits filed as inhibitors; 300,000 compounds, 1.8% hits; active = well fitted inhibition curve with a large enough effect; inconclusive = small, poorly fitted or top-dose-only effect, or effect the other way; inactive = flat fitted curve, though single readings scatter; tested in HEK293 cells; about a fifth of its hits are not listed in these tables; also: % is scaled to controls: 0 for no effect and ±100 for the full control effect; luciferase read-out
Cruzain Triton: inhibitors of Trypanosoma cruzi cruzain with detergent | P25779 | purified cruzain, Z-FR-AMC fluorescence, 0.01% Triton | Potency, µM, for the others: max response, negative = inhibition, most hits filed as inhibitors | 200,000 compounds, 0.43% hits; active = well fitted curve in the direction sought with a large enough effect; inconclusive = small, poorly fitted or top-dose-only effect, or another doubt; inactive = no such curve, though single readings can be large; an effect the other way counts as inactive or inconclusive;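 also: plate controls were neutral wells for no effect and buffer without enzyme for full effect; nearly all actives have a fitted effect of over 40% in size; top concentration of the series not given in the record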
Target sequence (P25779 123-467 limits assumed): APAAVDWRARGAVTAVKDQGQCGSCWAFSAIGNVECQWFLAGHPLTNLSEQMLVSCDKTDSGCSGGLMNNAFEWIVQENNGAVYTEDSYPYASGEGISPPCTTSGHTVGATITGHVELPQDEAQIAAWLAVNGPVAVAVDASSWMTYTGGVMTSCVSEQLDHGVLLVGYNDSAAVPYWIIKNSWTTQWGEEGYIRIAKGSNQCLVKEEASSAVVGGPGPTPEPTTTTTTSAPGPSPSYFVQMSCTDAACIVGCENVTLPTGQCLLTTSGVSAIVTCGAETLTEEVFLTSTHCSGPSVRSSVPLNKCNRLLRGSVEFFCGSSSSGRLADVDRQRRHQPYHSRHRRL
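Cysteine protease activity tested under reducing, mildly acidic conditions (100 mM sodium acetate pH 5.5, 5 mM DTT) plus 0.01% Triton X-100. Cruzain 1.5 nM; substrate Z-FR-AMC 2 uM; 15 min compound preincubation at room temperature.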
Lassa entry inh: blocks Lassa virus binding to or entry into cells; Lassa virus pseudotype entry inhibition, cell reporter; control for the full effect not named in the record; Potency, µM (doses to about 37.9 µM), for the others: top-dose activity change, negative = inhibition, usual class: inhibitors; 300,000 compounds, 1.2% hits; active means well fitted inhibition curve with a large enough effect; inconclusive means small, poorly fitted or top-dose-only effect, or effect the other way; inactive means flat fitted curve, though single readings scatter; tested in HEK293 cells; also: % is scaled to controls: 0 for no effect and ±100 for the full control effect; nearly all actives have a fitted effect of over 50% in size; luciferase read-out
Cruzain noTriton: inhibitors of Trypanosoma cruzi cruzain without detergent. 200,000 compounds, 2.3% hits. P25779. purified cruzain, Z-FR-AMC fluorescence, no detergent. Potency, µM, without a hit: max response, negative = inhibition, most hits filed as inhibitors; active = well fitted curve in the direction sought with a large enough effect; inconclusive = small, poorly fitted or top-dose-only effect, or another doubt; inactive = no such curve, though single readings can be large; an effect the other way counts as inactive or inconclusive;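 also: plate controls were enzyme without inhibitor for no effect and buffer without enzyme for full effect; nearly all actives have a fitted effect of over 40% in size; top concentration of the series not given in the record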
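Purified cruzain at 1.5 nM, pre-incubated 15 min with compound at room temperature in 100 mM sodium acetate pH 5.5, 5 mM DTT, 0.00005% Triton X-100. Reaction started with 2 uM Z-FR-AMC; AMC fluorescence increase over 60 s gives rate.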
RE007 growth inh: less growth of the S. pombe RE007 Vpr strain; S. pombe RE007 Vpr strain, BacTiter-Glo ATP luminescence, 24 h; control for the full effect not named in the record; Potency, µM (highest dose often 92.2 µM), without a hit: at the highest dose activity change, negative = less growth; 360,000 compounds, 0.21% hits; AID 651644; active = well fitted falling curve with a large enough effect; inconclusive = small, poorly fitted or top-dose-only effect; inactive = no such curve, though single readings can be large or run the other way;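 also: % is scaled to controls: 0 for no effect and ±100 for the full control effect; nearly all actives have a fitted effect of over 50% in size; the assay follows cell death caused by Vpr and the record does not say whether a fall means rescue or toxicity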
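Fission yeast RE007 carrying one integrated HIV-1 vpr copy, seeded at OD 0.01 in PMG+AL medium with 23 nL pinned compound. Grown 24 h at 30 degrees; viability read by BacTiter-Glo luminescence after 5 min.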
Starred values were filed as active, the others as inactive; ? = inconclusive; / = not tested or not shown; & = joins results of further samples; [ ] = remark or other dose. Unless noted, calls follow the shape of the dose curve; as a rule, active means well fitted rising curve with a large enough effect; inconclusive means small, poorly fitted or top-dose-only effect; inactive means no such curve, though single readings can be large or run the other way. Potency is read from the fitted curve at half-maximal effect.

SMILES	NS1 function inh	SARS PLpro yeast	StopGo reporter	MARV entry inh	Cruzain Triton	Lassa entry inh	Cruzain noTriton	RE007 growth inh
CC(C)(C)c1ccc(OCCCn2ccnc2)cc1	-11%	-5%	30%	16%[46.1 µM]	/	-1%[46.1 µM]	/	-4%
O=c1cc(CCl)nc2sc3ccccc3n12	/	-8%	-5%	?	/	?	/	-18%
Cc1ccc(CNC(=O)c2ccc3c(=O)n(CC4CCCO4)c(=S)[nH]c3c2)cc1 (stereo not given)	5%	/	6%	-1%	-0.6%	8%	2%	-11%
NC(=O)N/N=C/c1ccc(-c2ccc(S(=O)(=O)Nc3ncccn3)cc2)o1	/	4%	-13%	-3%	/	-7%	/	-16%
CCOc1ccc2c(c1)C(=O)c1cc(OCC(=O)O)ccc1-2	2%	-1%	-16%	/	/	/	/	2%
CCOC(=O)c1cnn(-c2ccccc2)c1-n1cccc1C(=O)C(=O)N(C)C	4%	0%	25%	-17%[46.1 µM]	/	-15%[46.1 µM]	/	2%
N#CC1=C(N)OC2=C(C(=O)CC(c3ccco3)C2)C1c1ccc(OCc2c(F)cccc2Cl)cc1 (stereo not given)	11%	-4%	-25%	?	-1.4%	?	?	0%
CCN(c1ccccc1)S(=O)(=O)c1c(-c2ccc(C)cc2)csc1C(=O)OC	/	/	-15%	/	-6.9%	?	-2%	/
CN1CCN(c2nc(Nc3ccc(F)cc3)nc(Nc3ccc(F)cc3)n2)CC1	1%	0%	?	/	/	/	/	1%
CC1CCCCC1NC(=O)CCS(=O)(=O)c1cccc2nonc12 (stereo not given)	-5%	13%	14%	-9%	4.4%	0%	-3%	24%
Cc1ccc(Cn2c(CN3CC(C)OC(C)C3)nc3c2c(=O)n(C)c(=O)n3C)cc1 (stereo not given)	-6%	7%	-8%	/	1.4%	/	?	17%
C1CCN(c2nc3nonc3nc2N2CCCC2)C1	6%	4%	9%	11%	-5.9%	11%	0%	3%
COc1ccc(OC)c(S(=O)(=O)N2CCC(C(=O)NCc3ccccc3)CC2)c1	-5%	-3%	-1%	14%	1.6%	-1%	0%	32%
CN(C(=O)c1cccc(Br)c1)C1CCS(=O)(=O)C1 (stereo not given)	/	3%	-3%	-2%[46.1 µM]	/	14%	/	-6%
CCOc1cc(C(=O)NCc2ccc3c(c2)CCN3C(=O)CC)cc(OCC)c1OCC	/	/	-22%	-23%[46.1 µM]	-3.9%	-13%[46.1 µM]	?	/
CC(C)(CN=C1NS(=O)(=O)c2ccccc21)CNC(=O)c1ccccc1	1%	4%	-9%	/	/	/	/	5%
Cc1nn(C)c(C(=O)N/N=C/c2ccc(-c3ccccc3)cc2)c1Cl	3%	4%	-28%	?	/	-23%[46.1 µM]	/	-11%
O=S(=O)(c1ccc(Br)cc1)c1nnn2c1nc(NCc1ccc3c(c1)OCO3)c1sccc12	/	/	-16%	/	-2.0%	13%[46.1 µM]	3%	/
COC(=O)C1CCN(C(=O)c2cc3c(=O)n4cccc(C)c4nc3n2Cc2ccccc2)CC1	2%	0%	-27%	?	/	?	/	-7%
CCc1cccc(C)c1NC(=S)N(CCCN1CCN(C)CC1)Cc1cccs1	/	-1%	22%	10µM*	/	9%	/	-4%
Cc1ccc(NC(=O)C2C3C=CC4(O3)C2C(=O)N(CCCN2CCCC2)C4C(=O)NC2CCCCC2)cc1Cl (stereo not given)	4%	-9%	3%	?	/	5%[46.1 µM]	/	-1%
CC(C(=O)NCc1ccccc1)N(Cc1ccccc1Cl)C(=O)c1snc(C(N)=O)c1N (stereo not given)	12%	-3%	26%	-29%[46.1 µM]	/	5%[46.1 µM]	/	-8%
CCOc1ccc(NCc2cccn2-c2nnc(N3CCC(C(=O)NCCCN4CCCCC4)CC3)s2)cc1	-4%	-4%	-9%	/	/	/	/	-11%
CCC(CC)C(=O)N1CCc2cc(OC)c(OC)cc2C1COc1ccc(C(=O)OC)cc1 (stereo not given)	/	/	?	/	1.2%	-6%[46.1 µM]	?	/
CC[C@H](C)[C@@H]1NC(=O)c2cc([N+](=O)[O-])cc(I)c2NCC[C@@H](C(N)=O)NC(=O)[C@H](CCCN=C(N)N)NC1=O	-9%	10%	-9%	-11%	-11%	-1%	-9%	1%
SMILES	NS1 function inh	SARS PLpro yeast	StopGo reporter	MARV entry inh	Cruzain Triton	Lassa entry inh	Cruzain noTriton	RE007 growth inh
Cc1cnc(C(=O)OCc2cc(=O)n3c(C)cccc3n2)cn1	/	-5%	16%	6%[46.1 µM]	/	5%[46.1 µM]	/	-6%
CCCS(=O)(=O)N1CCN(C(=O)CCC2CCCC2)CC1	-2%	5%	-5%	-2%	1.0%	?	3%	13%
Cc1ccc(-c2nc(C)c(CCNS(=O)(=O)c3ccc(F)c(C(F)(F)F)c3)s2)cc1	/	/	42%[activator]	/	-12%	?	?	/
Cn1c(Sc2ccc(Cl)cc2)c(C=O)c2ccccc21	-18%	-20%	?	-28%	-4.2%	-23%	0%	-9%
Cc1cc(C)c2c(=O)[nH]n(C(C)C)c2n1	-58%	2%	-21%	10%[46.1 µM]	-1.6%	4%	-3%	9%
Cc1cc(C)c(C#N)c(SCc2ccc(C#N)cc2)n1	5%	1%	-14%	0%	-0.7%	-11%	1%	2%
CC1(C)Cc2c(C#N)c(NCCc3ccccc3)nc(-c3ccco3)c2CO1	7%	-1%	-28%	?	?	?	-16%	?
COC(=O)c1cc(C(=O)c2cc(Cl)ccc2O)coc1=N	/	2%	-7%	17%	/	-2%	/	-5%
O=c1cc(-c2ccncc2)oc2c1ccc1ccccc12	-40%	-10%	-27%	?	/	0%	/	10%
NCCCC[C@H]1NC(=O)[C@H](CCC(=O)O)NC(=O)c2cc([N+](=O)[O-])cc(I)c2OCC[C@@H](C(N)=O)NC1=O	-5%	-4%	-8%	-16%	-4.5%	17%	-5%	-15%
COc1ccc(N2Nc3n[nH]c(N)c3N2)cc1	12%	11%	69%[activator]	24%	-7.5%	21%	-13%	6%
CC(C)c1ccc(NC(=O)C(c2ccc3c(c2)OCO3)N2CCN(C(=O)c3ccco3)CC2)cc1 (stereo not given)	-38%	2%	-18%	2%&-14%	2.7%	?	25%	5%
COc1ccc(C(=O)N(C)C2CCCN(Cc3ccccc3F)C2)cc1OC (stereo not given)	5%	0%	5%	10%[46.1 µM]	/	13%[46.1 µM]	/	1%
O=C(CNC(=O)c1ccc(Cl)c([N+](=O)[O-])c1)OC1CCCCC1=O (stereo not given)	/	-1%	-18%	13%	/	15%	/	0%
COc1ccc(Nc2ccc(C(=O)O)cc2[N+](=O)[O-])cc1	-11%	-34%	-11%	/	-4.4%	/	0%	-5%
O=C(Nc1cc(Cl)ccc1Cl)C1(c2cccs2)CCOCC1	/	/	-30%	/	-5.6%	?	-11%	/
CC(NC(=O)C1CCN(S(=O)(=O)c2ccccc2)CC1)c1ccccc1 (stereo not given)	-21%	-2%	-12%&-5%	/	0.9%	1%[46.1 µM]	-15%	-5%
COc1ccc(CCN2C(=O)c3ccncc3C2=O)cc1OC	2%	20%	8%	-16%[46.1 µM]	-3.7%	6%	-9%	16%
O=C(O)CS(=O)(=O)c1ccc(C(F)(F)F)cn1	/	2%	-8%	8%[46.1 µM]	/	?	/	-1%
CCc1ccc(CNC(=O)C(=O)NCC2CCCO2)cc1 (stereo not given)	1%	1%	-13%	-14%[46.1 µM]	/	37%[46.1 µM]	/	-1%
O=C(Cn1cc(S(=O)(=O)N2CCCC2)c(S(=O)(=O)N2CCCC2)c1)Nc1ccccc1	/	/	-4%	/	-2.2%	5%[46.1 µM]	-10%	/
O=C(c1ccccc1)N1CCN(Cc2ccc3c(c2)OCO3)CC1	-4%	0%	-14%	-3%[46.1 µM]	/	0%[46.1 µM]	/	7%
CCOC(=O)N1CCc2c(sc(NC(=O)CCS(=O)(=O)c3ccccc3)c2C(N)=O)C1	22%	-1%	-17%	/	/	/	/	12%
CCN(CC(=O)Nc1c(F)cccc1F)C(=O)CSCc1c(C)noc1C	/	-2%	-21%	13%	/	3%	/	-9%
COC(=O)c1cc2oc3ccccc3c2n1CC(=O)Nc1ccc(Cl)cc1F	/	/	12%	25%[46.1 µM]	1.6%	/	1%	/
SMILES	NS1 function inh	SARS PLpro yeast	StopGo reporter	MARV entry inh	Cruzain Triton	Lassa entry inh	Cruzain noTriton	RE007 growth inh
Cc1ccc(NC(=O)c2ccc(Oc3ncccn3)cc2)cc1	-6%	-1%	29%	0%[46.1 µM]	/	-19%[46.1 µM]	/	-15%
Cc1ccc(C)c(NC(=O)CCC(=O)NNC(=O)COc2cc(C)ccc2C)c1	6%	-1%	-17%	16%	/	22%	/	1%
O=C(CCCCn1c(=O)[nH]c2ccccc2c1=O)N1CCN(c2cccc(C(F)(F)F)c2)CC1	-50%	-16%	-28%	9.2µM*	-4.4%	16µM*	?	17%
O=C(c1cccc(Br)c1)N1CCN(S(=O)(=O)N2CCCCC2)CC1	-4%	-3%	0%	/	/	/	/	11%
O=C(NCc1ccc(Cl)cc1Cl)C1CC(=O)N(Cc2ccccc2)C1 (stereo not given)	/	3%	-4%	13%[46.1 µM]	/	-26%	/	8%
COc1ccc(N2CCN(C(CNC(C)=O)c3ccc4c(c3)OCO4)CC2)cc1 (stereo not given)	6%	6%	24%	/	/	/	/	-6%
CCSC1=NC(=O)/C(=C2/C=Cc3ccccc3N2CC)S1	-7%	0%	-24%	0%	-3.2%	3%	-6%	15%
Cn1c2ccccc2c2ncn(CCCN3CCOCC3)c(=O)c21	9%[9.22 µM]	1%	7%	3%	-0.6%	24%	-3%	-5%
Cc1cccc(N2C(=O)CC(N3CCN(c4ccccc4)CC3)C2=O)c1 (stereo not given)	11%	-50%	/	8%	-0.4%	1%	14%	-7%
Cc1nc2sc3c(c2c(=O)[nH]1)CCC3	-68%	-34%	16%	9%	-1.2%	18%	-2%	4%
Cc1nn(CCC(=O)NCc2ccc(Cl)cc2)c(=O)c2nn(-c3ccccc3)c(C)c12	/	/	?	/	-2.8%	-17%[46.1 µM]	-5%	/
COc1ccccc1OCCNC(=O)c1cc([N+](=O)[O-])cc([N+](=O)[O-])c1	/	2%	6%	-5%[46.1 µM]	/	-1%	/	-5%
CN1CCCN(S(=O)(=O)c2cccc(C#N)c2)CC1	5%	1%	1%	/	/	/	/	1%
O=C(COc1ccc(S(=O)(=O)N2CCOCC2)cc1Cl)NCCCn1ccnc1	19%	-2%	2%	1%	/	-3%	/	-20%
